Screens as filed in PubChem.
Cruzain inh noDet: cruzain (T. cruzi) inhibition without detergent. P25779. purified cruzain, Z-FR-AMC fluorescence, no detergent. Potency, µM, for inactives: max response, negative = inhibition, most hits filed as inhibitors. 200,000 compounds, 2.3% hits. AID 1476;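 also: plate controls were enzyme without inhibitor for no effect and buffer without enzyme for full effect; nearly all actives have a fitted effect of over 40% in size; top concentration of the series not given in the record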
Target sequence (P25779 123-467 limits assumed): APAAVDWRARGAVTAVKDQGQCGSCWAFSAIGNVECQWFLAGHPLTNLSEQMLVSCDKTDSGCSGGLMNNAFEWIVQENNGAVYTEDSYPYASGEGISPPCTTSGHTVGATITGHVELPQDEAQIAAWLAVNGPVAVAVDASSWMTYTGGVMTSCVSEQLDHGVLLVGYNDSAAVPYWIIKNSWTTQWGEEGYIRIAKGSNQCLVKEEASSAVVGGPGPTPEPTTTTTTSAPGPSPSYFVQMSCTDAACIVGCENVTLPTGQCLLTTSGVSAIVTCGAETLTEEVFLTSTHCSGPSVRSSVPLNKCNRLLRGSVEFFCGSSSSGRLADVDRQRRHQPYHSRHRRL
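Detergent-free condition (0.00005% Triton X-100) in acetate buffer pH 5.5 with DTT. 1.5 nM enzyme and compound were pre-mixed 15 min, then 2 uM Z-FR-AMC substrate added; reaction progress from fluorescence change between first and third reads (60 s).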
Cruzain Triton: inhibitors of Trypanosoma cruzi cruzain with detergent | 200,000 compounds, 0.43% hits | purified cruzain, Z-FR-AMC fluorescence, 0.01% Triton | P25779 | Potency, µM, for the others: max response, negative = inhibition, hits mostly inhibitors;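 also: plate controls were neutral wells for no effect and buffer without enzyme for full effect; nearly all actives have a fitted effect of over 40% in size; top concentration of the series not given in the record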
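Cruzain (1.5 nM) preincubated 15 min at RT with compound in 100 mM sodium acetate pH 5.5, 5 mM DTT, 0.01% Triton X-100. Reaction started with 2 uM Z-FR-AMC; AMC fluorescence (ex 360/em 450 nm) change over 60 s gave rate.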
Marburg entry inh: blocks Marburg virus binding to or entry into cells; Marburg virus pseudotyped entry inhibition, cell reporter; control for the full effect not named in the record; about a third of the inactives were read at about 46 µM; Potency, µM (doses to about 37.8 µM), without a hit: top-dose activity change, negative = inhibition, most hits filed as inhibitors; 300,000 compounds, 1.8% hits; AID 540276; active = well fitted inhibition curve with a large enough effect; inconclusive = small, poorly fitted or top-dose-only effect, or effect the other way; inactive = flat fitted curve, though single readings scatter; tested in HEK293 cells; about a fifth of its hits are not listed in these tables; also: % is scaled to controls: 0 for no effect and ±100 for the full control effect; luciferase read-out
LASV entry inh: inhibitors of Lassa virus binding or cell entry | Lassa virus pseudotype entry inhibition, cell reporter; control for the full effect not named in the record | 300,000 compounds, 1.2% hits | Potency, µM (series often up to 37.9 µM), for inactives: at the top dose activity change, negative = inhibition, usual class: inhibitors; active means well fitted inhibition curve with a large enough effect; inconclusive means small, poorly fitted or top-dose-only effect, or effect the other way; inactive means flat fitted curve, though single readings scatter; tested in HEK293 cells; also: % is scaled to controls: 0 for no effect and ±100 for the full control effect; nearly all actives have a fitted effect of over 50% in size; luciferase read-out
RE007 growth inh: less growth of the S. pombe RE007 Vpr strain; S. pombe RE007 Vpr strain, BacTiter-Glo ATP luminescence, 24 h; control for the full effect not named in the record; Potency, µM (series often up to 92.2 µM), for the others: at the top dose activity change, negative = less growth; 360,000 compounds, 0.21% hits; AID 651644; active = well fitted falling curve with a large enough effect; inconclusive = small, poorly fitted or top-dose-only effect; inactive = no such curve, though single readings can be large or run the other way;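 also: % is scaled to controls: 0 for no effect and ±100 for the full control effect; nearly all actives have a fitted effect of over 50% in size; the assay follows cell death caused by Vpr and the record does not say whether a fall means rescue or toxicity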
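Fission yeast RE007 carrying one integrated HIV-1 vpr copy, seeded at OD 0.01 in PMG+AL medium with 23 nL pinned compound. Grown 24 h at 30 degrees; viability read by BacTiter-Glo luminescence after 5 min.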
SARS PLpro yeast: blocks SARS-CoV papain-like protease in a yeast assay; S. cerevisiae expressing SARS-CoV PLpro, growth rescue; control for the full effect not named in the record; Potency, µM (highest dose often 32.9 µM), inactives show at the top dose activity, positive = growth rescue; 330,000 compounds, 0.19% hits; AID 485353; active means well fitted rising curve with a large enough effect; inconclusive means small, poorly fitted or top-dose-only effect; inactive means no such curve, though single readings can be large or run the other way; also: 0% is about no effect; nearly all actives have a fitted effect of over 55% in size; growth read by luminescence after 48 h
NS1 function inh: inhibitors of influenza NS1 protein function; S. cerevisiae slowed by influenza A NS1, growth recovery by OD600; Potency, µM (titrated, usually from 46.1 µM), without a hit: at the top dose activity, positive = more growth; 270,000 compounds, 0.4% hits; AID 2326; active means well fitted rising curve with a large enough effect; inconclusive means small, poorly fitted or top-dose-only effect; inactive means no such curve, though single readings can be large or run the other way; also: nearly all actives have a fitted effect of over 50% in size
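Recovery from NS1-induced slow growth read by OD600 in budding yeast switched to galactose assay medium (pH 6.0, -URA) at 1:100 dilution. Compound 23 nl per well; the matching strain lacking NS1 serves as control.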
StopGo reporter: FMDV 2A StopGo reporter, luciferase signal; human cells with a luciferase reporter of 2A StopGo recoding; control for the full effect not named in the record; Potency, µM (titrated, usually from 57.9 µM), for the others: top-dose signal change, negative = less light; 410,000 compounds, 1.2% hits; active = well fitted falling curve with a large enough effect; inconclusive = small, poorly fitted or top-dose-only effect; inactive = no such curve, though single readings can be large or run the other way; tested in HEK293T cells; also: % is scaled to controls: 0 for no effect and ±100 for the full control effect; nearly all actives have a fitted effect of over 45% in size; luciferase light after 4 h
The depositor's hits bear a star; ? = inconclusive; / = not tested or not shown; & = joins results of further samples; [ ] = another dose, or the depositor's remark. Unless noted, calls follow the shape of the dose curve; as a rule, active = well fitted curve in the direction sought with a large enough effect; inconclusive = small, poorly fitted or top-dose-only effect, or another doubt; inactive = no such curve, though single readings can be large; an effect the other way counts as inactive or inconclusive. Potency is read from the fitted curve at half-maximal effect.

A first look (nine entries):
Letters – A = Cruzain inh noDet; B = Cruzain Triton; C = Marburg entry inh; D = LASV entry inh; E = RE007 growth inh; F = SARS PLpro yeast; G = NS1 function inh; H = StopGo reporter
1. O=C(Nc1ccc(F)c([N+](=O)[O-])c1)C1CCCO1 (stereo not given)
  A: /	B: /	C: -2%[46.1 µM]	D: -1%	E: ?	F: /	G: /	H: -22%

2. CCc1ccccc1NC(=O)CCn1cccn1
  A: 9%	B: -0.9%	C: /	D: 12%[46.1 µM]	E: /	F: /	G: /	H: -9%

3. CCCCCCn1c(=O)c(C(=O)Nc2ccncc2)c(O)c2ccccc21
  A: -7%	B: -6.8%	C: /	D: /	E: /	F: 12%	G: -54%	H: /

4. N#CCC(=O)N/N=C/c1cc(-c2ccccc2)n(-c2ccc(Cl)cc2)c1-c1ccccc1
  A: /	B: /	C: ?	D: ?	E: 1%	F: 0%	G: /	H: 25µM*

5. NCc1oc(-c2ccccc2)cc1C(=O)O
  A: /	B: /	C: 12%[46.1 µM]	D: 5%[46.1 µM]	E: 0%	F: -2%	G: /	H: 45%

6. CCOc1ccc(S(=O)(=O)NCC2CCCO2)c2cccnc12 (stereo not given)
  A: -8%	B: -2.5%	C: 0%[46.1 µM]	D: 0%	E: 0%	F: -2%	G: 11%	H: 51%[activator]

7. CCOC(=O)N1CCN(C(=O)CS(=O)Cc2nc(-c3ccc(OC)c(OC)c3)oc2C)CC1 (stereo not given)
  A: /	B: /	C: /	D: /	E: -4%	F: 1%	G: 1%	H: -11%

8. CCCCOC(=O)c1[nH]c(C)c(C(=O)OC)c1C
  A: 13%	B: 2.7%	C: 7%	D: 0%	E: ?	F: -16%	G: -110%	H: 15%

9. COc1ccccc1N1CCN(C(=O)c2cc3c(s2)-c2ccccc2OC3)CC1
  A: -15%	B: 2.3%	C: -36%[46.1 µM]	D: /	E: 1%	F: -10%	G: -51%	H: -8%&-8%

Main list, from the start:
Letters – A = Cruzain inh noDet; B = Cruzain Triton; C = Marburg entry inh; D = LASV entry inh; E = RE007 growth inh; F = SARS PLpro yeast; G = NS1 function inh; H = StopGo reporter
1. O=C(Nc1ccc(F)c([N+](=O)[O-])c1)C1CCCO1 (stereo not given)
  A: /	B: /	C: -2%[46.1 µM]	D: -1%	E: ?	F: /	G: /	H: -22%

2. CCc1ccccc1NC(=O)CCn1cccn1
  A: 9%	B: -0.9%	C: /	D: 12%[46.1 µM]	E: /	F: /	G: /	H: -9%

3. CCCCCCn1c(=O)c(C(=O)Nc2ccncc2)c(O)c2ccccc21
  A: -7%	B: -6.8%	C: /	D: /	E: /	F: 12%	G: -54%	H: /

4. N#CCC(=O)N/N=C/c1cc(-c2ccccc2)n(-c2ccc(Cl)cc2)c1-c1ccccc1
  A: /	B: /	C: ?	D: ?	E: 1%	F: 0%	G: /	H: 25µM*

5. NCc1oc(-c2ccccc2)cc1C(=O)O
  A: /	B: /	C: 12%[46.1 µM]	D: 5%[46.1 µM]	E: 0%	F: -2%	G: /	H: 45%

6. CCOc1ccc(S(=O)(=O)NCC2CCCO2)c2cccnc12 (stereo not given)
  A: -8%	B: -2.5%	C: 0%[46.1 µM]	D: 0%	E: 0%	F: -2%	G: 11%	H: 51%[activator]

7. CCOC(=O)N1CCN(C(=O)CS(=O)Cc2nc(-c3ccc(OC)c(OC)c3)oc2C)CC1 (stereo not given)
  A: /	B: /	C: /	D: /	E: -4%	F: 1%	G: 1%	H: -11%

8. CCCCOC(=O)c1[nH]c(C)c(C(=O)OC)c1C
  A: 13%	B: 2.7%	C: 7%	D: 0%	E: ?	F: -16%	G: -110%	H: 15%

9. COc1ccccc1N1CCN(C(=O)c2cc3c(s2)-c2ccccc2OC3)CC1
  A: -15%	B: 2.3%	C: -36%[46.1 µM]	D: /	E: 1%	F: -10%	G: -51%	H: -8%&-8%

10. O=C(NCC(c1cccs1)N1CCOCC1)c1cccc([N+](=O)[O-])c1 (stereo not given)
  A: 3%	B: 5.1%	C: -23%	D: ?	E: 1%	F: 22%	G: 3%	H: -8%

11. CCOC(=O)c1c(NC(=O)c2ccc(N3CCOCC3)c([N+](=O)[O-])c2)sc(C)c1C
  A: -2%	B: 6.4%	C: 0%	D: /	E: /	F: 1%	G: 4%	H: /

12. Cc1cc(OC(=O)c2cccs2)ccc1C(C)C
  A: -6%	B: -6.1%	C: 8%[46.1 µM]	D: 16%	E: -11%	F: 2%	G: -8%	H: 20%

13. CCOC(=O)c1cc(-c2ccccc2)sc1NC(=O)c1ccc(OC)c(OC)c1
  A: -1%	B: -14%	C: 2%	D: -18%	E: -10%	F: -19%	G: 7%	H: -27%

14. Cc1nc(N2CCN(C(=O)COc3ccccc3)CC2)c2c(C)c(C)sc2n1
  A: 19%	B: -6.0%	C: ?	D: ?	E: -3%	F: 13%	G: -30%	H: ?

15. O=C1c2ccccc2CCC12N=NCC2c1ccc(Cl)cc1 (stereo not given)
  A: 0%	B: 1.3%	C: 5%	D: 13%	E: ?	F: -17%	G: -61%	H: -2%

16. CCOC(=O)CSc1nc2c(sc3ccccc32)c(=O)n1CCCN1CCOCC1
  A: -19%	B: -7.7%	C: 8%&8%	D: 11%	E: -21%	F: -2%	G: -32%	H: -22%

17. COc1ccccc1/C=C/C(=O)NCC(=O)n1nc(C)cc1C
  A: /	B: /	C: 2%[46.1 µM]	D: -6%[46.1 µM]	E: 4%	F: 2%	G: 0%	H: -9%

18. CC(=O)c1cccc(NC(=O)c2csc3c2CCCCC3)c1
  A: /	B: /	C: ?	D: 7%	E: -1%	F: -3%	G: /	H: 9%

19. Cc1nnc(SCC(=O)Nc2ncc3c(n2)CCCC3=O)s1
  A: -7%	B: 0.6%	C: ?	D: 6%	E: 1%	F: 0%	G: ?	H: -3%

20. C=C(C)Cn1c(SCC(=O)N/N=C/c2cccc(O)c2)nc2ccccc2c1=O
  A: 14%	B: -7.9%	C: 22%	D: ?	E: 9%	F: 12%	G: -8%	H: -24%

21. O=C1CC(C(=O)O)C(c2ccccc2)c2ccccc21 (stereo not given)
  A: /	B: /	C: 2%[46.1 µM]	D: 22%[46.1 µM]	E: 0%	F: /	G: /	H: -10%

22. COc1ccccc1NS(=O)(=O)c1cc(NC(=O)COc2ccccc2F)ccc1N1CCOCC1
  A: /	B: /	C: ?	D: ?	E: 5%	F: 2%	G: /	H: 62%[activator]

23. COc1ccc2c(c1)c1c(n2C(C)=O)C(OC(C)=O)=NCC1
  A: -6%	B: 10%	C: -1%	D: 2%	E: -3%	F: 4%	G: -7%	H: /

24. S=C(NCCc1ccccc1)NCc1cccs1
  A: -13%	B: -0.9%	C: 5%	D: 28%	E: -11%	F: 12%	G: -17%	H: 79%[activator]

25. O=C(Nc1nc(-c2ccc(Cl)cc2)cs1)NC1CCCCC1
  A: -2%	B: -8.9%	C: ?	D: ?	E: 8%	F: 1%	G: 4%	H: ?

26. CC(C)=CC(=O)Nc1ccccc1Br
  A: -8%	B: 4.7%	C: 3%	D: 5%	E: -12%	F: -4%	G: -5%	H: 0%

27. Cn1c(CCN2CCCCC2)nc2cc(NS(=O)(=O)c3ccc(F)cc3)ccc21
  A: 1%	B: 4.7%	C: ?	D: -1%	E: -12%	F: 3%	G: 6%	H: 9%

28. Cc1ccc([N+](=O)[O-])cc1S(=O)(=O)N1CCN(C)CC1
  A: /	B: /	C: -1%[46.1 µM]	D: 19%	E: -4%	F: 2%	G: 4%	H: -7%

29. Cc1ccc(S(=O)(=O)Nc2ccc3c(c2)c2c(n3S(=O)(=O)c3ccc(C)cc3)CCCC2=O)cc1
  A: 7.9µM*	B: -4.5%	C: ?	D: ?	E: -5%	F: 6%	G: 15%	H: 0%

30. COc1ccc(Nc2n[nH]c(C)c2[N+](=O)[O-])cc1
  A: /	B: /	C: 0%	D: 0%	E: -6%	F: -1%	G: -4%	H: 20%

31. COc1ccc(C(=O)O)cc1S(=O)(=O)N1CCSCC1
  A: /	B: /	C: /	D: /	E: 1%	F: 1%	G: 16%	H: -3%

32. CCOC(=O)N1C(=O)NC(=O)C1c1ccccc1 (stereo not given)
  A: /	B: /	C: 18%	D: 5%[46.1 µM]	E: 5%	F: /	G: /	H: -14%
